VACV mCherry inh = inhibitors of vaccinia virus infection (mCherry reporter signal). Vaccinia virus mCherry reporter infection, fluorescence; about a quarter of the inactives have no number. Potency, µM (highest dose often 36.5 µM), for inactives: top-dose activity change, negative = inhibition, actives largely listed as inhibitors. 0.63% of 310,000 active; active = well fitted inhibition curve with a large enough effect; inconclusive = small, poorly fitted or top-dose-only effect; inactive = no such curve, though single readings can be large or run the other way; tested in A549 cells; note: nearly all actives have a fitted effect of over 35% in size; inactives centre near -10
Vaccinia Venus = inhibitors of vaccinia virus (Venus reporter) | 0.46% of 330,000 active | AID 720580 | Vaccinia virus Venus reporter expression, fluorescence | Potency, µM (titrated, usually from 36.5 µM), for inactives: at the highest dose activity change, negative = inhibition, actives largely listed as inhibitors; active means well fitted inhibition curve with a large enough effect; inconclusive means small, poorly fitted or top-dose-only effect; inactive means no such curve, though single readings can be large or run the other way; tested in A549 cells; note: nearly all actives have a fitted effect of over 30% in size; inactives centre near -10
* hit, by the source's call; i = inactive; ? = inconclusive; / = no result given; [ ] = remark or other dose. % is set by controls: 0 for no effect and ±100 for the full control effect; potency is the fitted concentration of half-maximal effect.

SMILES	VACV mCherry inh	Vaccinia Venus
O=C(CSc1nc2ccc(Cl)cc2[nH]1)N1CCN(C(=O)c2ccco2)CC1	-12.7%	-3.2%
CC(=O)N1CCc2c(sc3nc(SCC(C)C)n(-c4ccc(C)c(Cl)c4)c(=O)c23)C1	1.1%	1.7%
O=C(NCc1ccccc1)c1cc(C2COCCN2C(=O)c2ccccc2)on1 (stereo not drawn)	-1.8%	8.8%
C=CCNC(=S)NCCO	i	1.6%
CCCC(=O)Nc1cccc(Oc2nc(C)cc(C)c2C#N)c1	0.1%	7.5%
C/C(=N\N1CCN(Cc2ccccc2Cl)CC1)c1ccc(F)cc1	-14.8%	-16.8%
CCOC(=O)Cc1c(Cl)c2ccccc2[nH]c1=O	-9.0%	-2.0%
CC(OC(=O)C12CC3CC(CC(O)(C3)C1)C2)C(N)=O (stereo not drawn)	-0.3%	-1.6%
COc1ccc([C@H]2CC(=O)C=C(c3cccc(Br)c3)C2)cc1	-9.0%	-17.0%
COc1ccc(CNC(=O)CN2C(=O)CSc3ccc(S(=O)(=O)N4CCCCC4)cc32)cc1	-18.8%	-5.0%
Cc1ccc(S(=O)(=O)N2CCN(c3nc(C)c4c(c3C#N)CC(C)(C)OC4)CC2)cc1	/	-15.3%
COP(=O)(CN(Cc1ccccc1)C(=S)Nc1c(C)cccc1C)OC	i	-12.6%
O=C(CCCN1C(=O)c2cccc3cccc(c23)C1=O)Nc1ccon1	-8.5%	-3.0%
O=C1CCNc2ccc(-c3ccccc3)cc21	-22.9%	-4.9%
CC#CCN1C(=O)N[C@@H](c2ccccc2)C(C(=O)OC)=C1C	i	-12.9%
COc1ccc(C2c3c(oc4ccccc4c3=O)C(=O)N2c2ccccn2)cc1 (stereo not drawn)	-17.9%	-4.6%
CCN1C(C(=O)c2ccccc2)=C(OC(=O)COc2ccc(C)cc2)c2ccccc2S1(=O)=O	?	?
Cc1cccc(NC(=O)Cn2c(=O)nc(-c3ccccc3)c3ccccc32)c1C	i	-14.6%
CC(C)COc1ccc(CNC(=S)Nc2ccccc2)cc1Cl	-25.8%	-16.2%
O=C(Cc1ccccc1)N1CCN(CC2CC3C=CC2C3)CC1 (stereo not drawn)	-1.5%	-7.5%
O=C(CNC(=S)N(CCCN1CCOCC1)Cc1cccs1)NCCN1CCOCC1	-12.0%	-14.9%
C=CCNc1nc2c(c(=O)n(C)c(=O)n2C)n1Cc1ccc(F)cc1	-11.3%	-26.7%
Cn1c(N)c(C(=O)CSc2nnc(-c3ccccc3F)n2N)c(=O)n(C)c1=O	-7.0%	1.7%
O=C(CCNC(=O)c1ccccc1Cl)N/N=C\c1ccc(O)cc1	-23.7%	-6.2%
O=C(CCNS(=O)(=O)c1ccc(Br)cc1)NCc1cccs1	i	-1.4%
O=C(O)CC(NS(=O)(=O)c1ccc(Cl)s1)c1ccccc1 (stereo not drawn)	-12.6%	-13.1%
CCCN(CCC)C(=O)C1c2ccccc2Oc2ccccc21	-37.5%[1.46 µM]	-15.1%
Cc1ccc(C(=O)Cn2nnc3c(sc4nc5c(c(-c6ccccc6)c43)CCC5)c2=O)cc1	i	20.0%
O=C(NCc1ccccc1)C(c1ccncc1)N(C(=O)c1csnn1)C1CC1 (stereo not drawn)	-5.5%	-3.4%
C=CCn1cccc(C(=O)Nc2ccc(OCC)cc2)c1=O	-14.6%	-9.8%
CCN(CC)CCN(C(=O)c1cccc(N2C(=O)CCC2=O)c1)c1nc2cc3c(cc2s1)OCO3	?	-15.9%
O=C1CC(N2CCN(c3ccccc3Cl)CC2)C(=O)N1c1cccc(F)c1 (stereo not drawn)	-16.1%	-6.3%
Cc1ccc([N+](=O)[O-])cc1NC(=O)Nc1onc(C)c1C	i	-20.7%
Nn1c(COc2ccccc2F)nnc1SCC(=O)NCC1CCCO1 (stereo not drawn)	-0.8%	-2.7%
O=C(/C=C/c1ccccc1)NC(=S)Nc1cccnc1	-19.3%	-24.0%
COc1cc(CN(C)C)cc(C=O)c1O	0.5%	1.3%
NC(N)=Nc1nc2ccccc2o1	-18.9%	-0.1%
CCC(C)C(NC(=O)OC(C)(C)C)C(=O)NCc1ccco1 (stereo not drawn)	/	-18.0%
COC(=O)c1c(NC(=O)COc2ccc(Cl)cc2)sc(C)c1C	-14.0%	-11.5%
C#CCOCCOCCOCCNc1nc(N2CCN(C(=O)CCCCCCCCCCNC(=O)[C@@H](CCSC)n3cc(CCO)nn3)CC2)nc(N2CCN(C(=O)CCCCCCCCCCNC(=O)[C@H]([C@@H](C)CC)n3cc(CCCCN=C(N)N)nn3)CC2)n1	?	8.91µM*
Cc1nc(NC(=O)c2ccccc2)sc1-c1csc(NCc2ccccc2)n1	?	-19.6%
COc1ccccc1NC(=O)N(C)C[C@@H]1OCc2cn(nn2)CCCC(=O)N([C@@H](C)CO)C[C@H]1C	i	-12.2%
Cc1ccc(S(=O)(=O)Cc2cc(-c3ccc(Cl)cc3)no2)cc1	-24.0%	-19.8%
Cc1ccc(C(=O)OCC(=O)Nc2ccc3[nH]c(=O)[nH]c3c2)cc1S(=O)(=O)N1CCOCC1	-13.6%	-6.1%
CC(=O)c1cc(F)c(N2CCN(C(=O)C(C)(C)C)CC2)cc1C	-27.0%	-12.1%
COC(=O)Cn1c(=NC(=O)c2nc3ccccc3s2)sc2cc(S(N)(=O)=O)ccc21	-0.7%	-8.2%
Cc1c(Cl)cccc1NC(=O)c1cc2sccc2n1Cc1ccc(F)cc1	0.1%	-2.7%
CC(C)c1ccc(OCc2ccc(C(=O)N3CCCC3)o2)cc1	-7.2%	-2.0%
Cc1cc(C(=O)NNC(=O)NC(C)C)no1	-9.7%	-10.2%
COc1ccccc1C(CNC(=O)CCNS(=O)(=O)c1ccc(Br)cc1)N1CCCC1 (stereo not drawn)	?	-9.3%
CN(C)C(=O)CSc1nc(-c2ccccc2)nc2c1CCCC2	-23.7%	-19.2%
O=C(Nc1ccc(N2CCOCC2)cc1)c1cccnc1	-20.9%	-14.3%
COc1ccc(S(=O)(=O)N2CCC(C(=O)c3ccc4c(c3)OCCO4)CC2)cc1	-19.8%	-18.7%
O=C(N/N=C/c1ccccc1F)c1cccc(NC(=O)c2ccccc2Cl)c1	-0.6%	-5.1%
O=C(NCc1cccnc1)Nc1ccc(F)cc1F	-3.9%	-7.3%
O=C(O)c1ccc(N/N=C/c2ccc3ncccc3c2)cc1	i	-6.1%
Cc1cccc(NC2(C(=O)O)CCCC2)c1	-25.9%	-3.6%
CCC(=O)N1CCC1(C)C(=O)Nc1ccc(OC)c(OC)c1 (stereo not drawn)	-9.3%	2.1%
CC(C)(C)c1ccc(CC(=O)N2CCC2(C)C(=O)Nc2ccc3[nH]ncc3c2)cc1 (stereo not drawn)	?	-24.9%
COc1ccc(C(=O)Nc2cc(C(C)C)c(O)c(S(=O)(=O)c3ccc(OC)cc3)c2C)cc1	-11.4%	-15.8%

As entered above:
O=C(N/N=C/c1ccccc1F)c1cccc(NC(=O)c2ccccc2Cl)c1 @ VACV mCherry inh = -0.6%
Cc1cccc(NC2(C(=O)O)CCCC2)c1 @ Vaccinia Venus = -3.6%
CC(=O)c1cc(F)c(N2CCN(C(=O)C(C)(C)C)CC2)cc1C @ VACV mCherry inh = -27.0%
COc1ccccc1NC(=O)N(C)C[C@@H]1OCc2cn(nn2)CCCC(=O)N([C@@H](C)CO)C[C@H]1C @ Vaccinia Venus = -12.2%

Sorted by SMILES length (smallest number first): 3 of the compounds above.
SMILES	VACV mCherry inh	Vaccinia Venus
O=C(/C=C/c1ccccc1)NC(=S)Nc1cccnc1	-19.3%	-24.0%
CC(OC(=O)C12CC3CC(CC(O)(C3)C1)C2)C(N)=O (stereo not drawn)	-0.3%	-1.6%
Cc1ccc(C(=O)OCC(=O)Nc2ccc3[nH]c(=O)[nH]c3c2)cc1S(=O)(=O)N1CCOCC1	-13.6%	-6.1%

(further entries)
SMILES	VACV mCherry inh	Vaccinia Venus
O=C(/C=C/c1ccccc1)NC(=S)NNC(=O)c1ccco1	/	-21.1%
O=C(OC(C(=O)NCC1CCCO1)c1ccc(F)cc1)c1cccs1 (stereo not drawn)	-24.1%	-3.2%
Cc1ccc(Cn2c(C3CCCN3c3nc(-c4ccc(F)cc4)cs3)nc3cc(C(F)(F)F)ccc32)cc1 (stereo not drawn)	i	-20.6%
COC(=O)C[C@@H]1CC[C@H](NC(=O)Nc2ccc(OC)cc2)[C@@H](CO)O1	-13.9%	-1.8%
O=C(COC(=O)c1ccccc1Nc1ccccc1)Nc1ccccc1	-23.3%	-17.0%
CN=C(Nc1ccc(C(=O)OC)cc1)SC1CC(=O)N(c2ccccc2F)C1=O (stereo not drawn)	/	-28.6%
CCOC(=O)c1cc(-c2ccccc2)n(CCCC(=O)Nc2ccccc2C)c1C	-21.1%	-9.0%
OB(O)c1ccc(Cl)s1	-4.9%	-8.3%
OC(COc1ccccc1)CN1CCOCC1 (stereo not drawn)	?	-12.2%
CCC(C)NC(=O)COC(=O)c1ccc(Cl)cc1O (stereo not drawn)	-1.3%	-2.0%
Cc1cc(=O)[nH]c(SCC(=O)Nc2nnc(CC(C)C)s2)n1	-5.8%	-8.7%
CCN(C/C=C/c1ccccc1OC)Cc1ccccc1	-12.8%	-2.5%
COc1cc(OC)c(C(=O)NCc2ccc3c(c2)OCO3)cc1OC	i	-4.1%
O=C(C[C@H]1CC[C@@H]2[C@H](COC[C@H](O)CN2C(=O)c2cnccn2)O1)NCc1ccc(Cl)cc1	-14.1%	0.0%
Cc1ccc(S(=O)(=O)N2CCN(CN3C(=O)CC4(CCCC4)C3=O)CC2)cc1	-9.7%	-5.5%
CC1(C(=O)NC2CCCC2)CCC(=O)N1CCC1=CCCCC1 (stereo not drawn)	/	-24.1%
CC1(C(=O)NS(=O)(=O)c2ccc(Cl)s2)CCN1C(=O)Cc1cc(F)ccc1F (stereo not drawn)	-4.8%	0.4%
CCOc1ccc2c(c1)C(C)=CC(C)(C)N2C(=O)Nc1ccccc1F	-10.0%	-5.7%
Cc1[nH]c(=O)c(C(=O)c2ccccc2O)cc1C(=O)O	i	-2.8%
Cc1cccc(-n2c(Cc3ccccc3)n[nH]c2=S)c1	-9.2%	2.6%
CCc1cc2c(cc3c(=O)n(CCCC(=O)NCc4ccccc4Cl)nc(CC)n32)s1	-13.2%	-9.2%
c1ccc2oc(-c3ccc4c(c3)CNCc3cnnn3-4)cc2c1	42.9%[activator]	-8.0%
Cc1csc(NC(=O)CSc2ccc3nnc(CCNS(=O)(=O)c4ccccc4)n3n2)n1	-12.4%	-5.7%
Cc1nn(CC(=O)N2CCN(c3cccc(C(F)(F)F)c3)CC2)c(=O)c2cc3sccc3n12	-0.8%	-8.2%
COc1ccc(Cc2nc(-c3ccccn3)no2)cc1	-17.7%	-12.3%
COc1ccccc1N1CCN(/N=C\c2cccnc2)CC1	-26.8%	-5.5%
Cc1ccc2nc(N3CCN(C(=O)C4COc5ccccc5O4)CC3)sc2c1 (stereo not drawn)	-10.9%	-13.6%
CCOC(=O)c1ccc(NC(=O)c2nn(C)cc2Br)cc1	i	-12.7%
COc1ccc(S(=O)(=O)N2CC(C(=O)O)Oc3ccccc32)cc1 (stereo not drawn)	-17.4%	-15.8%

In the list so far, these contain an aryl methoxy group.
SMILES	VACV mCherry inh	Vaccinia Venus
COc1ccc([C@H]2CC(=O)C=C(c3cccc(Br)c3)C2)cc1	-9.0%	-17.0%
COc1ccc(CNC(=O)CN2C(=O)CSc3ccc(S(=O)(=O)N4CCCCC4)cc32)cc1	-18.8%	-5.0%
COc1ccc(C2c3c(oc4ccccc4c3=O)C(=O)N2c2ccccn2)cc1 (stereo not drawn)	-17.9%	-4.6%
COc1cc(CN(C)C)cc(C=O)c1O	0.5%	1.3%
COc1ccccc1NC(=O)N(C)C[C@@H]1OCc2cn(nn2)CCCC(=O)N([C@@H](C)CO)C[C@H]1C	i	-12.2%
COc1ccccc1C(CNC(=O)CCNS(=O)(=O)c1ccc(Br)cc1)N1CCCC1 (stereo not drawn)	?	-9.3%
COc1ccc(S(=O)(=O)N2CCC(C(=O)c3ccc4c(c3)OCCO4)CC2)cc1	-19.8%	-18.7%
CCC(=O)N1CCC1(C)C(=O)Nc1ccc(OC)c(OC)c1 (stereo not drawn)	-9.3%	2.1%
COc1ccc(C(=O)Nc2cc(C(C)C)c(O)c(S(=O)(=O)c3ccc(OC)cc3)c2C)cc1	-11.4%	-15.8%
COC(=O)C[C@@H]1CC[C@H](NC(=O)Nc2ccc(OC)cc2)[C@@H](CO)O1	-13.9%	-1.8%
CCN(C/C=C/c1ccccc1OC)Cc1ccccc1	-12.8%	-2.5%
COc1cc(OC)c(C(=O)NCc2ccc3c(c2)OCO3)cc1OC	i	-4.1%
COc1ccc(Cc2nc(-c3ccccn3)no2)cc1	-17.7%	-12.3%
COc1ccccc1N1CCN(/N=C\c2cccnc2)CC1	-26.8%	-5.5%
COc1ccc(S(=O)(=O)N2CC(C(=O)O)Oc3ccccc32)cc1 (stereo not drawn)	-17.4%	-15.8%
